E coli growth = E. coli growth inhibition; Escherichia coli growth, OD600, 23 h; active compounds read low; OD600 absorbance (no concentration beside the values); hit rate 0.21% among 330,000;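 active = OD600 absorbance below the run mean of sample wells minus 3.6 SD, in any replicate, cut at about 0.56 in these data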;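 note: stock transfer was 300 nL into about 60 µL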
AF4-AF9 inh = MLL-AF4/AF9 protein interaction inhibition; AlphaScreen, biotin-AF4 peptide binding to FLAG-AF9; inhibition, % at 10 µM; hit rate 0.47% among 350,000; AID 651704;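 active = every replicate reaching a set inhibition limit, whatever the replicate mean, cut at about 25% in these data; inconclusive = mean inhibition reaches that limit but some replicates miss it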;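 note: 0% = plate neutral control median and 100% = total signal loss; the record names both 10 and 1 µM as test concentration; the first replicate is given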
Target sequence (P42568 whole entry, looked up): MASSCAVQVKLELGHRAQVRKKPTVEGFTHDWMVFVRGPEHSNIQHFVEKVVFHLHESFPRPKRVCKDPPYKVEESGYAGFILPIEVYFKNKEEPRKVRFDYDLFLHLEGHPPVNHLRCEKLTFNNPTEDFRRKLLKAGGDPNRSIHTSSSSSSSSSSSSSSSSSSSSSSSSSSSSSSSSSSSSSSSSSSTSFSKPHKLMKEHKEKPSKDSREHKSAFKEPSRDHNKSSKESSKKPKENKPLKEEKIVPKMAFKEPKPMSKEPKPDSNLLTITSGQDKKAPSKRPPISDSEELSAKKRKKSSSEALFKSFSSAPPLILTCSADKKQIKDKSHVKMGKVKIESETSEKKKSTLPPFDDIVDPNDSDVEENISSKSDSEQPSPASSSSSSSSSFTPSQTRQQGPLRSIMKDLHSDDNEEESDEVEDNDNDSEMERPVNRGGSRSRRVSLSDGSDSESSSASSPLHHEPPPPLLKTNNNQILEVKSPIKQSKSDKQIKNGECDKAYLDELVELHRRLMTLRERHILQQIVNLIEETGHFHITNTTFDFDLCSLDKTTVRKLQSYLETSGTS
Ecoli rRNA inh = selective bacterial rRNA inhibition in E. coli; E. coli WT GFP vs humanized-ribosome RFP mutants, fluorescence, 24 h; active compounds read low; DMSO median 0, no signal -100; GFP signal change (wild-type ribosome), % (concentration not given with the values); hit rate 1.6% among 350,000; AID 720706;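 active = significant combined selectivity score with lowered wild-type GFP, culture density cut under 30%, mutant RFP and density less affected; inactive = any of these conditions unmet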; note: one replicate is shown; some compounds called inactive have numbers as strong as hits
A1 inh = inhibitors of the anti-apoptotic protein A1, read as caspase activation; MEF A1-2A-BIM cells, Caspase-Glo 3/7 luminescence, 3 h; percent of clofoctol response, vehicle zero; caspase activation, % (no concentration beside the values); hit rate 0.066% among 330,000; AID 2462;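 active = over half of replicate activation scores above 10%, or exactly half above 10 with the replicate mean above 10; inconclusive = replicate mean below 10 yet half the replicates above 10; inactive = over half of replicates below 10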;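 note: wells of about 30 µL received 50 nL stock; many hits fall short of the cut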
FGF22 binding = FGF22 (human) thermal shift binding. Q9HCT0. recombinant FGF22 thermal shift, SYPRO orange fluorescence; percent of sucrose octasulfate shift, DMSO zero. calls only at 9.99 µM. hit rate 1.5% among 340,000. AID 651658;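 active = melting point raised past a set limit in the mean and every replicate; inconclusive = no clear call; three in four hits are not shown here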
Target sequence (Q9HCT0 whole entry, looked up): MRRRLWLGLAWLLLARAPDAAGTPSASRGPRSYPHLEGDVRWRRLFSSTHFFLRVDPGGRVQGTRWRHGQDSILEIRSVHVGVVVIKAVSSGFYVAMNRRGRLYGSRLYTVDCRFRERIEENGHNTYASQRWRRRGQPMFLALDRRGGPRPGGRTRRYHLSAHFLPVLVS
T cruzi repl = blocks replication of Trypanosoma cruzi; T. cruzi beta-gal in NIH3T3, luminescence, 90 h; inhibition, % (concentration not given with the values); hit rate 1.4% among 300,000;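 active = mean inhibition across valid replicates above about 55%, limit read from the data; inconclusive = mean below that limit but half or more replicates reach it; inactive = mean below it, under half of replicates reach it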;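 note: signal also drops with host cell toxicity which is not excluded here; 0% = plate median of DMSO wells and 100% = zero luminescence signal; higher percent means less beta-gal luminescence so fewer parasites; stock transfer was 50 nL into about 50 µL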
Beta cell apopt = beta cell apoptosis inhibition | INS-1E cytokine-induced death, ATP luminescence, 48 h; percent of positive-control rescue, neutral wells zero | protection from apoptosis, % (test concentration not listed) | hit rate 0.8% among 300,000 | AID 435005;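 active = all replicates at 75% or more, or half of them and the mean; inconclusive = half reach 75% but not the mean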;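 note: 0% = cytokine-treated negative control wells and 100% = positive control rescue; higher means more ATP so stronger rescue from cytokine killing; wells of about 40 µL received 100 nL stock; the first replicate is given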
UCH37 inh = blocks the human deubiquitinase UCH37; Q9Y5K5; purified proteasome/UCH37, Ub-AMC cleavage fluorescence; inhibition, % (concentration not given with the values); hit rate 0.33% among 330,000;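 active = mean of two replicates above 20%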;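 note: 0% = compound-free wells with enzyme and 100% = wells lacking proteasome; stock transfer was 100 nL into about 20 µL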
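assay system = human UCH37 enzyme supplied as purified proteasome complex | amount = proteasome at 0.15 nM in the dispensed enzyme solution | schedule = 30 min compound-proteasome preincubation then 25 min substrate reaction, room temperature | measured by = fluorescence, ex 355 nm, em 460 nm | benchmarks = no-proteasome wells (full inhibition) and compound-free wells (no inhibition)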
Ecoli rRNA inh OD600 = further read-out of Ecoli rRNA inh, marked with its call; OD600 change, %; measured here: OD600 growth;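 optical density of the mix in the first replicate; 0 = DMSO median and -100 = no signal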
Ecoli rRNA inh RFP = further read-out of Ecoli rRNA inh, marked with its call; RFP signal change, %; measured here: RFP humanized mutant strains;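 first replicate; 0 = DMSO median and -100 = no signal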
* marks the source's active call; other numbers are inactive results; i = inactive; ? = inconclusive; . = not tested or not shown; + = active, no number; & = joins results of further samples; ! = a repeat was not active.

Start of the data: the first 4 entries, ahead of the listing:
SMILES	E coli growth	AF4-AF9 inh	Ecoli rRNA inh	Ecoli rRNA inh OD600	Ecoli rRNA inh RFP	A1 inh	FGF22 binding	T cruzi repl	Beta cell apopt	UCH37 inh
O=[N+]([O-])c1cc(Cl)cc(/C=N/Nc2nc3ccccc3s2)c1O	.	5.0	-37	-35	-7.2	0.5	i	-2	8	.
COc1ccc(Nc2nc(N)nc(CSC(=S)N3CCN(C)CC3)n2)cc1	0.68	4.3	-8	-6	0.0	0.6	i	19	-8	2.9
COc1ccc(OC)c(NC(=S)NN2CCOCC2)c1	0.7	.	.	.	.	0.7	.	5	0	3.0
NC(=O)CSc1nnc(-c2cc(-c3cccs3)nc3ccccc23)o1	0.73	.	.	.	.	0.9	.	.	-5	-307

All compounds of this part (from the top)
SMILES	E coli growth	AF4-AF9 inh	Ecoli rRNA inh	Ecoli rRNA inh OD600	Ecoli rRNA inh RFP	A1 inh	FGF22 binding	T cruzi repl	Beta cell apopt	UCH37 inh
O=[N+]([O-])c1cc(Cl)cc(/C=N/Nc2nc3ccccc3s2)c1O	.	5.0	-37	-35	-7.2	0.5	i	-2	8	.
COc1ccc(Nc2nc(N)nc(CSC(=S)N3CCN(C)CC3)n2)cc1	0.68	4.3	-8	-6	0.0	0.6	i	19	-8	2.9
COc1ccc(OC)c(NC(=S)NN2CCOCC2)c1	0.7	.	.	.	.	0.7	.	5	0	3.0
NC(=O)CSc1nnc(-c2cc(-c3cccs3)nc3ccccc23)o1	0.73	.	.	.	.	0.9	.	.	-5	-307
C/C=C/C(=O)N1c2ccc(C)cc2C(C)=CC1(C)C	0.68	2.4	2	-5	0.6	1.3	i	-6	-2	4.0
NC(=O)CC[C@@H]1NC(=O)[C@H](CO)NC(=O)c2cc([N+](=O)[O-])cc(I)c2NCCC[C@@H](C(N)=O)NC(=O)[C@H](Cc2ccc(O)cc2)NC1=O	.	?	5	12	-1.9	0.0	i	.	-2	5.1
C=CCn1c(SCC(=O)N(C)C)nc2cc(C(=O)O)ccc2c1=O	0.65	2.1	15	11	-0.7	?	i	-4	-8	-2.6
COc1ccc(-c2cc3ccccc3n2CC(O)CNC(CO)(CO)CO)cc1 (centres undefined)	0.69	.	.	.	.	1.1	.	13	.	-2.3
Cc1cccc(C)c1NC(=O)CCCCCNS(=O)(=O)c1ccccc1	0.69	-0.1	-4	-12	-0.7	0.1	i	10	-3	4.7
COc1cc(C2N(c3cccc(Cl)c3)C(=O)C3CCCN32)cc(OC)c1OC (centres undefined)	0.72	-1.3	8	-1	-0.7	0.5	i	-4	-7	0.0
CCN(c1ccc(OC)cc1)S(=O)(=O)c1csc(C(=O)N2CCCC2)c1	0.67	-1.4	-16	-17	1.0	-0.1	i	11	1	5.1
Nc1cccn2c(-c3ccc(Cl)cc3)cnc12	0.64	9.6	-6	-1	9.8	-0.2	i	7	-4	-15
Cc1ccc(NC2(c3nnnn3-c3c(C)cccc3C)CCCCC2)cc1	0.74	6.4	0	-15	-5.3	1.6	i	43	10	-1.3
COc1ccc(OC)c(CNC(=O)C2CCCN(c3nc4ccccc4o3)C2)c1 (centres undefined)	0.71	.	.	.	.	-0.3	.	8	3	0.8
CCOC(=O)C1CCN(C(=O)COC(=O)c2ccc(=O)n(Cc3ccccc3)n2)CC1	0.68	1.6	4	-3	-1.4	0.8	i	-8	-7	0.7
O=C(O)C1CCCCC1C(=O)Nc1ccc(F)cc1F (centres undefined)	0.76	4.1	8	9	1.4	1.7	i	-7	-9	2.2
CCc1ccc(C(=O)COC(=O)c2cnccn2)cc1	0.73	.	.	.	.	0.9	.	-18	-6	-6.6
COc1ccc(C(=O)NCC(=O)Nc2ccc(F)cc2)cc1OC	0.67	-0.5	11	17	-2.8	0.0	i	0	2	2.2
CSCCCNC(=O)c1ccc(OC2CCN(CCc3ccccc3)CC2)cc1	0.69	1.3	5	4	-6.7	0.6	i	-10	-3	3.8
Cc1c(Cl)c([N+](=O)[O-])nn1CCCC(=O)Nc1ccc(Cl)cc1Cl	0.67	4.3	-1	2	-1.1	0.3	i	-1	-17	4.8
O=C(COC(=O)c1ccccc1O)Nc1cccc(S(=O)(=O)N2CCCC2)c1	0.7	-6.0	-26	-34	-4.3	-0.1	i	.	-1	-3.7
COC(=O)C1CC2=C(CCCC2=O)N(c2ccccc2)C1=O (centres undefined)	0.68	1.0	10	14	-2.3	.	i	.	.	2.2
Cc1c(NC(=O)CSc2nnc(N)s2)c(=O)n(-c2ccccc2)n1C	0.68	.	.	.	.	1.2	.	-8	-16	0.1
Cc1ccc(-c2cc(C(=O)NCCc3ccccn3)c3ccccc3n2)c(C)c1	0.71	-7.8	.	.	.	-0.9	i	-35	-5	1.3
CCOc1ccc(C(=O)Nc2cccc(C)n2)cc1	0.69	.	.	.	.	-7.8	.	7	3	2.5
Cc1ccc(NC(=O)Cc2ccc(F)cc2)cc1	0.68	.	.	.	.	-0.2	.	-8	-12	3.6
CCNc1nc(NC(C)C)nc(N(C#N)C(C)C(=O)N(C)C)n1 (centres undefined)	0.66	.	.	.	.	0.2	.	-12	7	0.9
O=C(CSc1nnc(-c2ccc(F)cc2)o1)NC1CCCC1	0.67	-1.1	7	2	0.8	.	i	-8	.	-0.6
Fc1cccc(CNCC2CCCO2)c1 (centres undefined)	0.65	-8.2	4	4	0.4	-0.8	i	-15	-2	1.0
CC1Cn2c(nnc2C23CC4CC(CC(C4)C2)C3)S1 (centres undefined)	0.72	3.4	1	0	-2.0	1.2	i	-22	9	4.1
CC1CCC(NC(=O)C2CCN(S(=O)(=O)c3cccc4nonc34)CC2)CC1 (centres undefined)	0.68	-3.4	-1	9	-0.1	0.3	i	9	-4	3.8
CCn1ccnc1CN(C)C(=O)c1cc(COc2ccc(OC)c3ccccc23)on1	0.73	15	-8	-37	2.1	-0.1	i	12	-1	0.7
CC(O)Cc1cn(CC(=O)N2CCN(C(=O)OC(C)(C)C)CC2)nn1 (centres undefined)	0.67	-6.1	-1	0	3.0	0.4	i	-25	-5	1.5
COc1ccc(C(CNC(=O)c2ccc(NS(=O)(=O)c3ccc(F)c(C)c3)cc2)N2CCOCC2)cc1 (centres undefined)	0.69	1.7	0	-18	0.8	0.5	i	-4	1	0.7
O=C(Nc1ccc(Cl)cc1)OC(CN1CCCCC1)C(F)(F)F (centres undefined)	0.72	.	.	.	.	0.4	.	-16	-3	5.2
O=C(CCn1ccc2cc(S(=O)(=O)N3CCCC3)ccc21)NCc1ccccc1F	0.72	3.2	4	3	-2.5	2.7	i	-4	-8	1.4
COc1ccc(NC(=O)c2noc(C(C)C)c2[N+](=O)[O-])cc1	0.68	1.4	13	2	2.9	-0.7	i	-8	-1	4.6
CCC(C(=O)NC1CCCC1)N(C(=O)Cn1nnc(-c2ccc(OC)c(OC)c2)n1)C1CCCCC1 (centres undefined)	0.69	.	.	.	.	0.5	.	10	-4	0.4
Cc1nc(SCC(=O)Nn2c(-c3ccccc3)nc3ccccc3c2=O)n[nH]1	0.76	.	.	.	.	-0.4	.	-1	-5	5.6
Cc1cc(NC(=O)Nc2cccc(Cl)c2)n(C(C)(C)C)n1	0.63	0.6	4	7	0.1	0.9	i	9	-1	6.0
COc1ccccc1NC(=O)CSC1=NC(=O)C(NC(C)=O)C(=O)N1 (centres undefined)	0.71	.	.	.	.	-0.3	.	8	.	1.9
COC(=O)c1ccccc1CCC(C)=O	.	.	.	.	.	-0.2	.	-24	-12	-7.8
O=C(CCc1ccc(O)c(O)c1)NNC(=S)NCCc1ccccc1	0.73	2.9	0	-1	-1.4	-0.4	i	13	-4	0.2
COc1ccc(Cl)cc1NC(=O)CSc1nnc(CNC(=O)c2ccco2)o1	0.7	-5.7	0	3	-2.5	1.3	i	-18	-14	1.2
CC1=CC(=O)N(c2ccc(C)cc2)C1c1ccc(Cl)cc1 (centres undefined)	0.69	-1.2	-45	-61	-18	0.2	i	4	-12	7.5
CCOC(=O)N1CCC(NC(=O)c2cc(C(=O)Nc3ccc(S(=O)(=O)N4CCOCC4)cc3)ccc2CO)CC1	.	-2.7	18	11	-1.3	-0.1	i	-8	-6	.
COC(=O)C1=C(C(=O)OC)[C@@H]2Nc3ccccc3[C@@]23C[C@@H](C(=O)OC)N=C3N1	.	.	.	.	.	-0.3	.	-9	-1	4.8
O=C(Cn1c(NCCCO)nc2ccccc21)c1cccs1	0.74	-0.6	4	12	-0.1	0.5	i	-11	-1	2.1
CCNC(=O)CC1C(=O)N(C)C(=S)N1NC(=O)c1ccc(Cl)cc1 (centres undefined)	0.72	.	.	.	.	-0.4	.	-6	0	0.7
Cc1ccc(NC(=O)Nc2ccc3c(c2)nnn3C)cc1C	0.74	-6.6	10	10	-0.4	-0.4	i	2	-5	-21
CC1CCC2(CC1)NC(=O)N(NC(=O)c1cccs1)C2=O (centres undefined)	0.71	1.8	6	17	-2.7	0.7	i	.	1	-0.7
COc1ccc(NC(=O)N(C)C[C@@H]2Oc3ccc(NC(=O)NC(C)C)cc3CC(=O)N([C@H](C)CO)C[C@@H]2C)cc1	.	-2.3&-0.2	1&6	10&2	-0.9&7.0	-0.4	+!	.	-9	-0.3
COC(=O)c1ccc(OC(=O)C2CSC3(C)CCC(=O)N23)cc1 (centres undefined)	0.65	-9.6	0	8	-5.5	0.1	.	-1	-8	0.5
CCCCNc1nc(=S)n(-c2ccccc2)c(C)c1C(C)=O	0.69	-1.3	-10	6	-1.0	0.9	.	-22	-3	5.5
Cc1ccc(NC(=O)c2ccc(NC3=NC4CS(=O)(=O)CC4S3)cc2)cc1 (centres undefined)	0.68	-6.2	6	8	-3.0	-0.2	i	4	0	-0.8
O=C(NC1(C(F)(F)F)NC(=O)N(Cc2ccco2)C1=O)c1cccs1 (centres undefined)	0.7	.	.	.	.	-0.2	.	-11	-3	-0.6
COc1cc(/C=C2/NC(=O)N(Cc3ccccc3F)C2=O)cc(OC)c1OC	0.63	2.7	-5	-7	-1.2	0.4	i	14	-3	-17
O=c1[nH]c(O)c(N=Nc2ccc(Cl)c(S(=O)(=O)Nc3ccccc3Cl)c2)c(=O)[nH]1	0.68	0.9	-5	4	-1.1	1.0	i	.	-1	7.4
COC(C[C@@H](O)[C@@H](C)[C@@H](O)COCc1ccccc1)OC	.	-10	0	2	-3.0	.	i	-12	.	4.2

Assay outcomes (PubChem BioAssay)

Not all compounds are listed; rates above refer to the full screens.
